High-throughput results (PubChem BioAssay)
HCMV NEC inh – cytomegalovirus nuclear egress complex inhibition; HTRF UL50-UL53 interaction, normalized percent inhibition; inhibition, % (no concentration beside the values); 190,000 compounds, 0.15% hits; AID 1918969;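 active means both replicates at 50% or more, plus weaker picks with an unusually low signal ratio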;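 further: stock transfer was 100 nL into about 20 µL; 0% = negative control wells and 100% = wells with untagged competitor protein; inactives centre near -12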
Starred values were filed as active, the others as inactive; & = joins results of further samples. These rows are one share of the data; the hit share may differ from the screen's.

SMILES | HCMV NEC inh
CCCCCCCCNC(=O)Cc1c(C)n(C(=O)c2ccc(Cl)cc2)c2ccc(OC)cc12 | -6&-6
O=C(Cn1nc(Cc2ccccc2)c2ccccc2c1=O)NCCc1ccco1 | 10&10
O=C(C=Cn1cnc(-c2cc(C(F)(F)F)cc(C(F)(F)F)c2)n1)NNc1cnccn1 | -7
CC(C)(C)C(=O)NCc1nc2ccccc2[nH]1 | 14
COc1ccc(NC(=O)c2csc3c2CCCC3)cc1 | -5
CCOC(=O)C(CCc1ccccc1)NC(C)C(=O)N1CCCC1C(=O)O (configuration not stated) | 9
CCOC(=O)CSc1nc(N)c2c3c(sc2n1)CCC3 | -8
COc1ccc2cc(C(=O)OC(C)C)sc(=O)c2c1OC | -29
N=C(N)SCc1cn2ccccc2n1 | -1
CCC(C)C(NC(=O)C(CCC(=O)O)NC(=O)C(CC(C)C)NC(=O)C1CN=C(C(N)C(C)C)S1)C(=O)NC1CCCCNC(=O)C(CC(N)=O)NC(=O)C(CC(=O)O)NC(=O)C(Cc2cnc[nH]2)NC(=O)C(Cc2ccccc2)NC(=O)C(C(C)CC)NC(=O)C(CCCN)NC1=O (configuration not stated) | 17
CCCCn1cc(-c2cc(C(=O)N3CCCC3)c3cccc(C)c3n2)cn1 | -4
O=C1C(Cl)=C(N2CCOCC2)C(=O)N1c1ccc(Cl)c(Cl)c1 | -14
CC(=O)Nc1cc(C(C)C)c(C(C)C)cc1C(C)C | 1
Cc1ccc(NC(=O)c2ccco2)cc1Cl | 4
N#CC1=C(SCC(=O)Nc2ccc(Br)cc2)NC(=O)CC1c1ccccc1 (configuration not stated) | -4
CCOc1ccc(-n2ccnc2SCC(=O)NCCc2ccccc2)cc1 | -9
CCc1cc(C(=O)Cc2ccc3ccccc3n2)c(O)cc1OC | -4
c1cc(-c2nc(Cc3ccsc3)no2)c2nccnc2c1 | -85&-85
CCc1ccc(/C=C2\SC(=S)N(CCC(=O)N3CCCc4ccccc43)C2=O)cc1 | 5
CCOC(=O)c1c(-c2ccccc2)oc2ccc(OC(=O)CC)cc12 | 1
Oc1c(CN2CCCC2)cc(Cl)c2cccnc12 | -17
c1ccc(CNCC2CCCO2)cc1 (configuration not stated) | -3
O=C(NC1CCCC1)C1c2ccccc2C(=O)N1C1CCCC1 (configuration not stated) | -6
COc1ccc(N2CCN(CC(O)COc3ccc(-c4ccccc4)cc3)CC2)cc1 (configuration not stated) | -3
O=S(=O)(c1cccs1)N1CCN(c2ccccc2F)CC1 | 0
Cc1ccccc1-c1nnc(N)s1 | -1
CSc1nc(CSc2ccc(Cl)cc2)nc(C2CC2)c1C#N | -4
Cc1cccc(C(N)CC(=O)O)c1 (configuration not stated) | -6
CCOC(=O)COc1ccc2ccc(=O)oc2c1 | -36
CCC(C)Sc1nc2c(cnn2-c2ccccc2)c(=O)[nH]1 (configuration not stated) | -4
FC(F)(F)c1cccc(Cc2noc(CCCN3CCCCC3)n2)c1 | -10
COC(=O)CSc1nc(-c2ccccc2)nc2c1CCCC2 | -2
O=C(c1ccc(S(=O)(=O)NCC2CCCO2)cc1)N1CCc2ccccc21 (configuration not stated) | -2
CCCN1CC(CSC)CC2c3cccc4[nH]cc(c34)CC21 (configuration not stated) | 0
CC(C)(C)c1cc(C(C)(C)C)c(NC(=O)c2c[nH]c3ccccc3c2=O)cc1O | -9
CCOC(=O)CSc1ncnc2nc[nH]c12 | -2
O=C(Nc1c2c(nn1-c1ccc(Cl)cc1)CSC2)c1ccco1 | -10
CC1(C)S[C@H]2C(NC(=O)C(N)c3ccccc3)C(=O)N2C1C(=O)O (some centres not stated) | -3
N#C/C(=C/Nc1ccc(S(N)(=O)=O)cc1)c1nc(-c2ccc(Cl)c(Cl)c2)cs1 | 14
CCOC(=O)N1CCN(Cc2cc(Cl)c3cccnc3c2O)CC1 | -27
CC(Oc1ccccc1)C(=O)NCCn1ccc2ccccc21 (configuration not stated) | -5
CCCN(CCC)c1ncnc2nc[nH]c12 | -12
O=C(O)c1cccc(S(=O)(=O)Nc2ccccc2)c1 | 11&-6
Cc1ccc(C#N)c(SC(C(=O)O)c2ccccc2)n1 (configuration not stated) | -28
O=C(/C=C/c1cccs1)OCc1ccc2c(c1)OCO2 | 1

Given as labelled records: entries from further up
O=C(O)c1cccc(S(=O)(=O)Nc2ccccc2)c1
- HCMV NEC inh: 11&-6
CCOC(=O)N1CCN(Cc2cc(Cl)c3cccnc3c2O)CC1
- HCMV NEC inh: -27
N#C/C(=C/Nc1ccc(S(N)(=O)=O)cc1)c1nc(-c2ccc(Cl)c(Cl)c2)cs1
- HCMV NEC inh: 14
CC(C)(C)c1cc(C(C)(C)C)c(NC(=O)c2c[nH]c3ccccc3c2=O)cc1O
- HCMV NEC inh: -9

(listing goes on)
SMILES | HCMV NEC inh
CC1(C)O[C@@H]2C[C@H]3[C@@H]4C[C@H](F)C5=CC(=O)CC[C@]5(C)[C@H]4[C@@H](O)C[C@]3(C)[C@]2(C(=O)CO)O1 | -11
O=C(Nc1ccc(N2CCOCC2)c(Cl)c1)c1ccc(Br)o1 | -18
CC(C)(C)C(=O)Nc1nnc(-c2ccc(Br)cc2)s1 | -6
CC(C)C(CO)Nc1nc(NCc2ccc(S(N)(=O)=O)cc2)c2ncn(C(C)C)c2n1 (configuration not stated) | -8
N#CCC(C1CCCC1)n1cc(-c2ncnc3[nH]ccc23)cn1 (configuration not stated) | 12&-15
N#CC(C#N)=C(Nc1ccccn1)C(F)(F)F | -16
CC(C)(C)OC(=O)N[C@@H](Cc1ccccc1)c1n[nH]c(=S)o1 | -4
CS(=O)(=O)Nc1ccc([N+](=O)[O-])cc1OC1CCCCC1 | -12&-12&-47
CCCc1nc2ccccc2n1C(C)C | -22
CCC(=O)Nc1ccc(-c2nc3ccccc3[nH]2)cc1 | 3
COc1ccc(CC(N)=O)cc1 | -20
O=C(COc1ccc(Cl)cc1)NCCn1ccc2ccccc21 | -16
COc1ccc(C=Nc2ccc(/C=C\C(=O)O)cc2)cc1 | -19
COc1nc2ccccc2cc1-c1nnc2ccccn12 | -5&-5
Cc1ccc(C2=CSc3nnc(-c4ccccc4Br)n3N2)cc1 | -7
Cc1c(-c2ccccc2)c(CN2CCN(C)CC2)n2ccccc12 | -20
Cc1ccccc1C1C(=O)c2ccccc2N(C)C1=O (configuration not stated) | -12
O=C(O)c1cccc(-c2ccc(O)cc2)c1 | 2&2
CCCCCCCC/C=C\CCCCCCCC(=O)OC[C@H](CO)OC(=O)CCCCCCC/C=C\CCCCCCCC | -10&-10
CC(=O)Nc1ccc(NC(=S)NC(=O)c2ccc(C(C)(C)C)cc2)cc1 | 7&-9&-9
CCCC(C)C1C(C#N)=C(N)OC2=C1C(=O)CC(C)(C)C2 (configuration not stated) | -19
Cc1ncsc1-c1ccn(CC(=O)Nc2ccnn2Cc2cccs2)n1 | 38&38
O[C@H](CSc1nc2ccccc2o1)C(F)(F)F | 2
O=C(Nc1cccc(Nc2ncc(Br)c(NCCc3cnc[nH]3)n2)c1)N1CCCC1 | -2&-23&-28&-28
CCc1cc(C(=O)Cc2cnc[nH]2)c(O)cc1O | -11
c1ccc(Nc2nc(-c3cccs3)cs2)cc1 | -25&-4
O=C(CSc1ccc2nnc(-c3ccc(F)cc3)n2n1)c1ccccc1 | -10
COc1ccccc1NC(=O)CCCN1C(=O)/C(=C\c2ccco2)SC1=S | -9&-14
Cc1ccc(-c2ncccc2OC2(C(=O)O)CCCC2)cc1C | -6
COCC(=O)Nc1c(I)c(C(=O)NCC(O)CO)c(I)c(C(=O)N(C)CC(O)CO)c1I (configuration not stated) | 1
Cc1cccc(-n2nc3c(c2NC(=O)c2ccc(Br)o2)CS(=O)C3)c1C (configuration not stated) | 1
O=C(Oc1cccc2ccccc12)c1ccccc1Cl | -14
CC(=O)OCC(=O)[C@@]1(OC(C)=O)[C@@H](C)C[C@H]2[C@@H]3C[C@H](F)C4=CC(=O)C=C[C@]4(C)[C@@]3(F)[C@@H](O)C[C@@]21C | -24
OCCN1CCN(c2nc(-c3ccccc3)c3cc(Br)ccc3n2)CC1 | -7
COC(=O)c1sc2nc(N)c(C#N)c(-c3ccc(Cl)cc3)c2c1N | 7
CC(C)CCC(=O)N1CCCCC1CCc1ccc(O)cc1 (configuration not stated) | -35
Cc1cc(C)c(CNC(C)CCC(C)C)c(C)c1CO (configuration not stated) | -5
CC(C)CNC(=O)COc1ccc2ccccc2c1 | -11
CCOc1cccc2cc(C(=O)OC)c(=O)oc12 | -94
CCOC(=O)c1[nH]c(COC(C)=O)c(CC)c1CC | 5
Cc1cc(C)c(S(=O)(=O)N2CCCC(C(=O)O)C2)c(C)c1 (configuration not stated) | -4
Cn1c(O)c(-c2[nH]c3ccccc3c2N=O)c2ccc(Br)cc21 | -7
N#Cc1cnn(-c2ccc(C(F)(F)F)cn2)c1N | -4
Cc1ncc(CNc2cc(C(=O)Nc3cccc(N(C)C)c3)cc(S(=O)(=O)N3CCCC3)c2)[nH]1 | -4
CC#CC(=O)Nc1cc2c(Nc3ccc(F)c(Cl)c3)ncnc2cn1 | -20
COC(=O)c1ccc(OCC(O)CN2C(C)(C)CC(O)CC2(C)C)cc1 (configuration not stated) | -16
CN(C)c1ccc(/C=C/CN2CC(=O)N(CCCN3CCCC3=O)CC(O)C2)cc1 (configuration not stated) | -6
C=CCn1c(C2CC(=O)N(c3ccccc3)C2)nc2ccccc21 (configuration not stated) | -2
COC(=O)c1ccc(NC2SC(=O)NC2=O)cc1 (configuration not stated) | 2
CCOC(=O)NCCCC(=O)NCCc1ccccc1 | 8
O=C(Cc1ncc(C(F)(F)F)cc1Cl)Nc1ccc(N2CCOCC2)cc1 | -2
CCCC(=O)Nc1nc2ccc(C(=O)OCC)cc2s1 | -10
CCC(CC)(CCC#N)CNC1COC2(CCCCC2)C1 (configuration not stated) | -13
CNc1ccnc(-c2cnn(CC(=O)Nc3cc(C)nn3C)c2)n1 | -4&-4
Cc1ncc(CN2CCCCC2)c(N)n1 | 15
CC(C)c1nnc(NC(=O)c2cccs2)s1 | -17
Fc1cccc(-n2ccc(-c3ccccc3)n2)n1 | -7
NC(=O)c1cc2ccccc2oc1=NCc1ccccc1 | -14
CCOC(=O)c1c(C)oc2c1c(C=NCc1ccco1)c(O)c1ccccc12 | 3
CC(=O)NC12CC3CC(CC(CC(=O)O)(C3)C1)C2 | 5

In a second layout: results already given
SMILES	HCMV NEC inh
Cc1ncc(CN2CCCCC2)c(N)n1	15
CCC(CC)(CCC#N)CNC1COC2(CCCCC2)C1 (configuration not stated)	-13
C=CCn1c(C2CC(=O)N(c3ccccc3)C2)nc2ccccc21 (configuration not stated)	-2
NC(=O)c1cc2ccccc2oc1=NCc1ccccc1	-14
COC(=O)c1ccc(OCC(O)CN2C(C)(C)CC(O)CC2(C)C)cc1 (configuration not stated)	-16

(cont.)
SMILES | HCMV NEC inh
CCCC1CCCN1Cc1ccccc1OC1(C(=O)O)CCCC1 (configuration not stated) | 4
Nc1c(C(=O)O)sc2nc(C3CC3)cc(-c3ccc(Cl)cc3)c12 | -8
Cc1noc(C)c1CSc1ncnc2sc3c(c12)CCCC3 | -13
Cc1sc2ncnc(NC3CCN(Cc4ccccc4)CC3)c2c1C | 10&-9
CC(=O)Nc1ccc(OC(=O)c2cc3ccccc3oc2=O)cc1 | -27
COc1ccc2c(C(=O)N(C)Cc3nonc3C)cc(-c3cnn(C)c3)nc2c1 | -13&-13
CC12CCC(C(=O)N3CCCC3)(CC1=O)C2(C)C (configuration not stated) | -16
Cc1ccc(N)c(C(O)(C(F)(F)F)C(F)(F)F)c1 | -14
CCC1CCCCN1C(=O)CSc1nnc(-c2ccccc2)o1 (configuration not stated) | -5
Cc1nnc(SCC(=O)c2ccccc2)s1 | -9
O=C(Nc1nnc(-c2cccs2)o1)c1ccc2c(c1)CCCC2 | -5
O=C1C[C@@H]2[C@@H](/C=C/[C@@H](O)COc3cccc(C(F)(F)F)c3)[C@H](O)C[C@@H]2O1 | -26&-26
COC(=O)c1ccsc1NC(=O)C(C)C | 11&4
O=C(Nc1c[nH]c2ccccc12)c1cccnc1 | -7&-7
O=C(C1CCCCCC1)N1CCC(n2cc(-c3ccccc3)nn2)CC1 | -16

Overlap with the part before: 5 compounds; new compounds follow.
SMILES | HCMV NEC inh
O=C(Nc1nnc(-c2cccs2)o1)c1ccc2c(c1)CCCC2 | -5
O=C1C[C@@H]2[C@@H](/C=C/[C@@H](O)COc3cccc(C(F)(F)F)c3)[C@H](O)C[C@@H]2O1 | -26&-26
COC(=O)c1ccsc1NC(=O)C(C)C | 11&4
O=C(Nc1c[nH]c2ccccc12)c1cccnc1 | -7&-7
O=C(C1CCCCCC1)N1CCC(n2cc(-c3ccccc3)nn2)CC1 | -16
N#CCc1nc2cc(C(F)(F)F)ccc2s1 | 0
O=C(C1CC(=O)N(C2CCCC2)C1)N1CCN(c2ccc(F)cc2)CC1 (configuration not stated) | -7
CC(=O)NCCC1CCN(C(=O)C(C)(C)Oc2cc(C)ccc2Cl)CC1 | -13
COC(=O)/C=C/c1ccc(Br)cc1 | -30
Brc1ccc(NC2=Nc3ccccc3SC2)cc1 | -10
N#Cc1ccc(-c2ccccc2)nc1SCC(=O)O | -17
O=C1NC(=O)C(c2cn(CCCn3ccnc3)c3ccccc23)=C1Nc1ccccc1 | -96
Cc1ccccc1N1C(=O)C2C=CC=CC2n2cnnc21 (configuration not stated) | -19
Cc1ccn2c(NC(=O)C(C)(C)C)c(-c3ccc(F)cc3)nc2c1 | -3
O=C(O)c1c[nH]c2c(ccc3cccnc32)c1=O | -18&-18
CCOc1ccc(N=Cc2ccc(N(CC)CC)cc2O)cc1 | -10
COc1cccc2cc(C(=O)N3CCCc4ccccc43)c(=O)oc12 | -11
CCCCC(=O)O[C@H]1CCC2C3CCc4cc(O)ccc4C3CC[C@@]21C (some centres not stated) | -20
Cc1ccc(NC(=O)C(C)C)cc1C1CCN(Cc2ccc(Oc3ccc(F)c(F)c3)cc2)CC1 | -8
COC(=O)[C@]12CCC(C)(C)C[C@@H]1[C@@H]1C(=O)C=C3[C@]4(C)C=C(C#N)C(=O)C(C)(C)[C@@H]4CC[C@@]3(C)[C@]1(C)CC2 | 75
CC(C)C(=O)Nc1nc2ccc(Cl)cc2s1 | -1
